Mtb growth – Mycobacterium tuberculosis H37Rv growth inhibition, cell based, confirmatory dose response (AID 1949). M. tuberculosis H37Rv growth inhibition. 100,000 compounds, 1.6% hits. most inactive calls were filed without a number and no value below 0 was filed. inhibition, % at 10 µg/mL, or IC50 in µg/mL where a hit was titrated;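 active = confirmed in a dose series; inconclusive = about 50% or more but not retested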;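 note: bacteria grown 7 days with compound before Alamar blue readout; 0% = untreated bacteria and 100% = reference antibiotic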
Numbers without * were called inactive; i = inactive; ? = inconclusive.

molecule | Mtb growth
Cc1cccc(C)c1OS(=O)(=O)c1ccc(Cl)cc1 | i
CC(=O)Nc1ccc(C(=O)N2CCOCC2)cc1Cl | 2%
Cc1ccc(-c2nc(C#N)c(N3CCOCC3)o2)cc1 | i
c1ccc(-c2noc(CN3CCN(C(c4ccccc4)c4ccccc4)CC3)n2)cc1 | ?
CCCCNCCOc1ccc(OCc2ccccc2)cc1 | i
CC(CCc1ccccc1)NC(=O)c1ccc(NC(=O)C2COc3ccccc3O2)cc1 (centres undefined) | ?
Cc1ccc(C(=O)NC(=S)Nc2ccccc2N2CCCC2)cc1C | 8%
COc1cc(-c2nnc(COc3ccc4ccccc4c3)o2)cc(OC)c1OC | 5%
CCc1ccccc1N(CC(=O)Nc1ccc(S(=O)(=O)N2CCCC2)cc1)S(C)(=O)=O | i
Cc1c(Cc2ccccc2)c(=O)oc2cc(OC(=O)c3cccs3)ccc12 | i
CC(CC(=O)NC1CCCCC1)S(=O)O (centres undefined) | 3%
CCOC(=O)NCCc1ccc(OC)cc1 | i
CC(C)N(Cc1nc2ccccc2[nH]1)C(C)C | i
CC(=O)Oc1cccc(C(=O)Nc2ccc(Oc3ccccc3)cc2)c1 | 4%
C=CCn1c(N)cc(=O)nc1SCC(=O)OC1CC2CCC1(C)C2(C)C (centres undefined) | i
CNc1cc(N2CCN(C)CC2)ccc1[N+](=O)[O-] | 2%
CC12CCC(C(=O)Nc3ccccc3-n3cccc3)(CC1=O)C2(C)C (centres undefined) | 1%
Cc1ccc(S(=O)(=O)Nc2ccc(NC(=O)c3c(F)c(F)c(F)c(F)c3F)cc2)cc1 | 1%
CCC(C)Cn1c(C)nc2ccccc21 (centres undefined) | i
C=CCOc1ccc(C2c3c(oc4ccccc4c3=O)C(=O)N2c2nnc(C)s2)cc1OCC (centres undefined) | i
CSc1ccccc1NC(=O)c1cc2ccccc2oc1=O | i
CN1C(=O)c2ccc(C(=O)c3cccc([N+](=O)[O-])c3)cc2C1=O | i
COc1ccc(OC)c(Nc2ncnc3ccccc23)c1 | 1%
Cn1cnnc1SCc1ccccc1F | i
COC(=O)c1ccccc1NC(=O)c1sc2nc(C3CC3)cc(C(F)(F)F)c2c1N | i
Cc1ccccc1OCC(=O)Nc1cccc2ccccc12 | i
Cn1nnnc1SCCNC/C=C/c1ccccc1 | i
COc1cc(C)c(C2NC(=S)NC(C)=C2C(N)=O)cc1C (centres undefined) | i
Cc1sc2ncnc(SCc3ccccc3F)c2c1C | 3%
CCOC(=O)c1sc(NC(=O)Nc2cccc(Cl)c2)nc1C | 3%
C=CCNc1oc(COc2ccc(Cl)cc2Cl)nc1C#N | i
Cc1nn(-c2ccccc2)c2c1C(c1ccc(Cl)cc1Cl)SCC(=O)N2 (centres undefined) | i
CC(C)(C)c1ccc(C(=O)NN2C(=O)c3ccccc3C2=O)cc1 | i
COC(=O)c1ccccc1NC(=O)C1CCN(S(=O)(=O)c2cc(OC)ccc2OC)CC1 | i
O=C(NCCO)NC(=S)c1ccccc1 | 4%
CC(=O)N1CCN(c2nnc(-c3ccc(C)cc3)c3ccccc23)CC1 | i
O=C(NC(=S)Nc1ccccc1N1CCCCC1)c1ccccc1Cl | i
CCCC(=O)Nc1ccccc1NC(=O)C12CC3CC(CC(C3)C1)C2 | 6%
O=C(CC1(O)C(=O)Nc2c(C(F)(F)F)cccc21)c1ccc(Cl)cc1 (centres undefined) | i
O=C(N1CCCC1)C1(c2ccccc2)CCOCC1 | i
CCn1cc(Br)c(C(=O)Nc2ccc(F)cc2F)n1 | i
COc1ccc(-c2csc(NC(=S)NC(=O)c3ccccc3C)n2)cc1OC | 2%
Cc1cc(C)c(NC(=O)CC(C)c2ccccc2)c(C)c1 (centres undefined) | 47%
COc1ccc2nc(NC(=O)CSc3nnnn3C)sc2c1 | 0%
COC(=O)c1c(NC(=O)C(C)Oc2cccc(Cl)c2)sc(C(=O)N(C)C)c1C (centres undefined) | i
Cc1ccc(OCCOCCn2cnc3ccccc3c2=O)c([N+](=O)[O-])c1 | 0%
Cc1cccc(N2C(=O)N(c3ccccc3C)C3CS(=O)(=O)CC32)c1 (centres undefined) | i
COC(=O)CCC/C=C1\SCC(NC(=O)c2ccccc2)C1NC(C)=O (centres undefined) | 1%
Cc1cccc(C)c1NC(=O)CN(Cc1ccc(F)cc1)S(=O)(=O)c1ccccc1 | i
CS(=O)(=O)N1CCN(C(=S)NCc2ccc(F)cc2)CC1 | i
CSc1ccc(S(=O)(=O)NC2CCCC2)cc1 | i
O=C(CCCCc1cccs1)NCc1ccccc1 | i
Cc1ccc(NC(=O)c2cc([N+](=O)[O-])ccc2NCCO)cc1Cl | i
C=CCc1ccc(OCCN2CCN(CC)CC2)c(OC)c1 | i
CCc1c(C)sc(NC(=O)C(C)(C)C)c1C(N)=O | i
Cc1cc(C)n(C(=O)c2ccc(NC(=O)C3CCCCC3)cc2)n1 | i

(cont.)
molecule | Mtb growth
CC(NC(=O)CSc1nnc(-c2ccc(Cl)cc2)n1C)c1ccccc1 (centres undefined) | i
COCCNC(=O)c1c(F)c(F)c(F)c(F)c1F | i
O=C(Nc1ccc(I)cc1)Nc1ccc2c(c1)OCO2 | i
COC(=O)c1ccccc1NC(=O)NC(C)(C)C | i
Cc1ccc(N2CCN(S(=O)(=O)c3ccc(Br)cc3)CC2)cc1C | i
COc1ccccc1NC(=O)CCSc1cccc2cccnc12 | 17%
CCc1cc(=O)oc2cc(OCC(=O)N(C)C)ccc12 | i
CCOc1ccc2nc(NC(=S)NC(=O)c3ccc(OC)c([N+](=O)[O-])c3)sc2c1 | i
CCOC(=O)Cc1csc(NC(=O)CCCOc2ccccc2OC)n1 | 1%
CCc1cc2c(=O)c(-c3ccccc3Cl)coc2cc1O | 0%
CCOc1ccc(N(CC(=O)OC)S(=O)(=O)c2ccc(F)cc2)cc1 | i
S=c1[nH]nc(-c2ccc(Cl)cc2)n1Cc1ccccc1 | i
CCOC(=O)c1c(NC(=O)c2ccc(S(=O)(=O)N3CCCCCC3)cc2)sc2c1CCC2 | i
S=C(Nc1ccccc1)Nc1ccccc1N1CCOCC1 | i
CCC(CC)C(=O)Nc1sc(C)c(C)c1C(=O)OC | 1%
Cn1c(CNC(=O)c2ccccc2Cl)nnc1SCC(=O)Nc1nc(-c2ccccc2)cs1 | 1%
Cc1cc(NC(=S)NC(=O)CC23CC4CC(CC(C4)C2)C3)cc(-c2nc3ccccc3s2)c1O | i
Cc1nc(N2CCc3ccccc3C2)[nH]c(=O)c1CCC(C)C | i
O=C(Nc1ccccc1N1CCCCC1)C(c1ccccc1)c1ccccc1 | 10%
Cc1cc(C)c(NC(=O)CSc2nnc(N)s2)c(C)c1 | i
COc1ccc(C2N=C(SC)NC(C)=C2C(=O)Nc2ccccc2)cc1 (centres undefined) | i
O=C(Nc1ccc(C(=O)Nc2ccccc2C(=O)O)cc1)c1ccc(Cl)c(Cl)c1 | 4%
CCC(=O)N1CCN(c2ccc(NC(=S)NC(=O)COc3ccccc3)cc2)CC1 | i
Cc1c(Cl)cccc1NC(=O)c1ccc(O)cc1 | i
Cc1[nH]c2ccccc2c1C(=O)CSc1n[nH]c(N)n1 | 0%
O=C(O)CCc1c(C(=O)O)[nH]c2ccccc12 | i
O=C(Nc1ccc(I)cc1C(F)(F)F)c1ccco1 | 3%
COc1ccc(C2(CNC(=O)c3ccc(OC(C)C)cc3)CCCC2)cc1OC | i
CCOc1ccc(CNCC2(c3ccccc3)CCCC2)cc1OC | i
Nc1nc(SCC(=O)NCCOCCO)nc2sc3c(c12)CCCC3 | i
O=c1c2ccccc2nc(SCc2cc(F)c(F)cc2Cl)n1Cc1ccccc1 | i
C=CCn1c(SC)nnc1-c1cccc([N+](=O)[O-])c1 | i
CSc1sc(SC)c(COC(C)=O)c1COC(C)=O | 4%
CCOc1ccc(N(C(C)C(=O)Nc2ccccc2C(=O)NCCOC)S(C)(=O)=O)cc1 (centres undefined) | i
CC(C)(O)C#Cc1ccc(C(=O)N2CCN(C(c3ccccc3)c3ccccc3)CC2)s1 | 36%
CCOC(=O)/C=C/C(=O)Nc1nc(-c2ccc(C)cc2)cs1 | i
O=C(Nc1cc2nn(-c3ccccc3)nc2cc1Cl)c1ccco1 | i
O=c1c2ccccc2nc(Cc2ccccc2)n1-c1cccc2ccccc12 | 4%
O=C(CSc1nnc(-c2ccccc2)c(-c2ccccc2)n1)Nc1nccs1 | i
CCSc1nnc(NC(=O)c2ccc(C)c([N+](=O)[O-])c2)s1 | 19%
CCn1c(=O)n(CC)c2cc(S(=O)(=O)N3CCOCC3)ccc21 | 1%
CCOc1ccccc1C1CC(c2ccc(C)cc2)=NN1C(C)=O (centres undefined) | 24%
N#CC(C(=O)COc1ccccc1)c1ccccc1 (centres undefined) | i
O=C(CSc1nc(-c2ccccc2)cc(=O)[nH]1)Nc1nc2ccccc2s1 | i
O=C(Nc1ccccc1C(F)(F)F)c1ccc([N+](=O)[O-])cc1 | i
Cc1nn(C(C)(C)C)c(OC(=O)c2c(F)cccc2F)c1Sc1ccccc1 | i
CCc1ccccc1NC(=O)CSc1nnc(N)s1 | i
O=C(Nc1cccc([N+](=O)[O-])c1)C(Cl)(Cl)Cl | i
Cc1ccccc1CSCC(=O)Nc1ccc(F)cc1F | i
CC(C)c1cc(C(=O)NNC(=S)NCC2CCCO2)c(O)c(C(C)C)c1 (centres undefined) | i
CCC(=O)N(CCC(c1ccco1)c1ccccc1OC)Cc1cccs1 (centres undefined) | i
O=C(CSc1nc2ccccc2c(=O)n1CC1CCCO1)c1ccc(Br)cc1 (centres undefined) | i
CC(CCc1ccccc1)NC(=O)c1ccc(NC(=O)COc2ccccc2)cc1 (centres undefined) | i
CC(C)CNC(=O)c1ccccc1NC(=O)CSCc1ccccc1Cl | 3%
Cc1ccc(NC(=O)NCCc2ccc(F)cc2)cc1 | 1%
CCC(C)NC(=O)C1CCN(C(=O)c2ccc([N+](=O)[O-])cc2)CC1 (centres undefined) | 0%

(further entries)
molecule | Mtb growth
C=CCc1cc(OC)ccc1OCCOCCNCCCC | i
O=C(c1cc(Br)ccc1Cl)N1CCCCCC1 | i
CCOc1cc(CO)cc(Br)c1OCC(N)=O | i
CCc1c(C)sc(NC(=S)NN2CCN(C)CC2)c1C(=O)OC | i
O=C(CN1CCCCC1)Nc1ccccc1NC(=O)CN1CCCCC1 | i
Cc1ccc(OCC(=O)N2CCN(c3ccccc3F)CC2)cc1 | 0%
Cc1cc(C)c(S(=O)(=O)Nc2nc(C)cc(C)n2)c(C)c1 | 0%
Cc1c(NC(=O)c2ccc(Cl)c(S(=O)(=O)N3CCCCC3)c2)c(=O)n(-c2ccccc2)n1C | i
Cc1cc2c(cc1C)NC(c1ccc([N+](=O)[O-])cc1)C1=C(CC(C)(C)CC1=O)N2 (centres undefined) | i
O=C(Oc1ccccc1NC1=NS(=O)(=O)c2ccccc21)c1cccc([N+](=O)[O-])c1 | i
CCOc1cc(C2C(C(=O)OCCOc3ccccc3)=C(C)NC3=C2C(=O)CC(C)(C)C3)cc(Br)c1O (centres undefined) | i
Cc1ccc(CN(CC(=O)NC2CCCCC2)S(=O)(=O)c2ccc(Br)cc2)cc1 | i
Cc1ccc(SC(C)C(=O)Nn2cnnc2)cc1 (centres undefined) | i
C=CCN(CC=C)CCCOc1ccc(C)cc1OC | i
COc1ccc(NC(=O)Nc2c(C(C)C)cccc2C(C)C)c(OC)c1 | i
Cc1[nH]c2ccccc2c1C(=O)C(=O)NCc1ccco1 | i

For convenience, some entries already given.
molecule | Mtb growth
Cc1cc2c(cc1C)NC(c1ccc([N+](=O)[O-])cc1)C1=C(CC(C)(C)CC1=O)N2 (centres undefined) | i
O=C(Oc1ccccc1NC1=NS(=O)(=O)c2ccccc21)c1cccc([N+](=O)[O-])c1 | i
CCOc1cc(C2C(C(=O)OCCOc3ccccc3)=C(C)NC3=C2C(=O)CC(C)(C)C3)cc(Br)c1O (centres undefined) | i
Cc1ccc(CN(CC(=O)NC2CCCCC2)S(=O)(=O)c2ccc(Br)cc2)cc1 | i
Cc1ccc(SC(C)C(=O)Nn2cnnc2)cc1 (centres undefined) | i

(more compounds)
molecule | Mtb growth
Cc1nc(-c2ccccc2)sc1C(=O)C1=C(O)C(=O)N(CCCN2CCOCC2)C1c1cccs1 (centres undefined) | i
O=C1CC(c2ccc3c(c2)OCO3)c2c(ccc3ccccc23)N1 (centres undefined) | i
CN=C1NC(=O)CC(C(=O)Nc2ccc3ccccc3c2)S1 (centres undefined) | i
c1ccc2c(c1)OCC(c1nn3c(Cn4nnc5ccccc54)nnc3s1)O2 (centres undefined) | i
CC(C)(C)C(=O)Nc1ccc(-c2cn3ccccc3n2)cc1 | i
COc1ccc(C(=O)Nc2ccccc2C2CC2)cc1 | 7%
O=S(=O)(CCSc1nc2ccccc2o1)Cc1ccc(Cl)cc1 | 5%

Random excerpt: 7 entries already listed.
molecule | Mtb growth
c1ccc2c(c1)OCC(c1nn3c(Cn4nnc5ccccc54)nnc3s1)O2 (centres undefined) | i
Cc1nc(-c2ccccc2)sc1C(=O)C1=C(O)C(=O)N(CCCN2CCOCC2)C1c1cccs1 (centres undefined) | i
CN=C1NC(=O)CC(C(=O)Nc2ccc3ccccc3c2)S1 (centres undefined) | i
CC(C)(C)C(=O)Nc1ccc(-c2cn3ccccc3n2)cc1 | i
O=S(=O)(CCSc1nc2ccccc2o1)Cc1ccc(Cl)cc1 | 5%
COc1ccc(C(=O)Nc2ccccc2C2CC2)cc1 | 7%
O=C1CC(c2ccc3c(c2)OCO3)c2c(ccc3ccccc23)N1 (centres undefined) | i

Not all compounds are listed. The share of hits here may be higher or lower than overall.
